Screens: PubChem, National Center for Advancing Translational Sciences (NCATS)
StopGo reporter = High Throughput Screening for Foot and Mouth Disease Virus Antivirals. human cells with a luciferase reporter of 2A StopGo recoding; control for the full effect not named in the record. Potency, µM (highest dose often 57.9 µM), for the others: top-dose signal change, negative = less light. AID 1159524, 2015. hit rate 1.2% among 410,000; active = well fitted falling curve with a large enough effect; inconclusive = small, poorly fitted or top-dose-only effect; inactive = no such curve, though single readings can be large or run the other way; tested in HEK293T cells; note: % is set by controls: 0 for no effect and ±100 for the full control effect; nearly all actives have a fitted effect of over 45% in size; luciferase light after 4 h
SARS PLP yeast = qHTS of Yeast-based Assay for SARS-CoV PLP. hit rate 0.19% among 330,000. S. cerevisiae expressing SARS-CoV PLpro, growth rescue; control for the full effect not named in the record. Potency, µM (highest dose often 32.9 µM), without a hit: top-dose activity, positive = growth rescue; active means well fitted rising curve with a large enough effect; inconclusive means small, poorly fitted or top-dose-only effect; inactive means no such curve, though single readings can be large or run the other way; note: 0% is about no effect; nearly all actives have a fitted effect of over 55% in size; growth read by luminescence after 48 h
MARV entry inh = qHTS for inhibitors of binding or entry into cells for Marburg Virus; Marburg virus pseudotyped entry inhibition, cell reporter; control for the full effect not named in the record; about a third of the inactives were read at about 46 µM; Potency, µM (series often up to 37.8 µM), for inactives: at the highest dose activity change, negative = inhibition, most hits filed as inhibitors; hit rate 1.8% among 300,000; AID 540276, 2011; active = well fitted inhibition curve with a large enough effect; inconclusive = small, poorly fitted or top-dose-only effect, or effect the other way; inactive = flat fitted curve, though single readings scatter; tested in HEK293 cells; about a fifth of its hits are not listed in these tables; note: % is set by controls: 0 for no effect and ±100 for the full control effect; luciferase read-out
LASV entry inh = qHTS for Inhibitors of binding or entry into cells for Lassa Virus; Lassa virus pseudotype entry inhibition, cell reporter; control for the full effect not named in the record; Potency, µM (highest dose often 37.9 µM), inactives show at the highest dose activity change, negative = inhibition, hits mostly inhibitors; hit rate 1.2% among 300,000; AID 540256, 2011; active means well fitted inhibition curve with a large enough effect; inconclusive means small, poorly fitted or top-dose-only effect, or effect the other way; inactive means flat fitted curve, though single readings scatter; tested in HEK293 cells; note: % is set by controls: 0 for no effect and ±100 for the full control effect; nearly all actives have a fitted effect of over 50% in size; luciferase read-out
RE007 growth inh = qHTS Assay for Inhibitors of the HIV-1 protein Vpr; hit rate 0.21% among 360,000; AID 651644, 2012; S. pombe RE007 Vpr strain, BacTiter-Glo ATP luminescence, 24 h; control for the full effect not named in the record; Potency, µM (series often up to 92.2 µM), for the others: top-dose activity change, negative = less growth; active = well fitted falling curve with a large enough effect; inconclusive = small, poorly fitted or top-dose-only effect; inactive = no such curve, though single readings can be large or run the other way;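 note: % is set by controls: 0 for no effect and ±100 for the full control effect; nearly all actives have a fitted effect of over 50% in size; the assay follows cell death caused by Vpr and the record does not say whether a fall means rescue or toxicity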
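Fission yeast strain RE007, carrying one chromosomally integrated HIV-1 vpr copy, was seeded at OD 0.01 in PMG+AL medium with 23 nL pinned compound. After 24 h at 30 °C and 99% humidity, viability was read by BacTiter-Glo luminescence.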
Cruzain inh noDet = qHTS Assay for Promiscuous and Specific Inhibitors of Cruzain (without detergent); purified cruzain, Z-FR-AMC fluorescence, no detergent; Potency, µM, for inactives: max response, negative = inhibition, usual class: inhibitors; hit rate 2.3% among 200,000; AID 1476, 2009;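 note: plate controls were enzyme without inhibitor for no effect and buffer without enzyme for full effect; nearly all actives have a fitted effect of over 40% in size; top concentration of the series not given in the record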
Target sequence (P25779 123-467 limits assumed): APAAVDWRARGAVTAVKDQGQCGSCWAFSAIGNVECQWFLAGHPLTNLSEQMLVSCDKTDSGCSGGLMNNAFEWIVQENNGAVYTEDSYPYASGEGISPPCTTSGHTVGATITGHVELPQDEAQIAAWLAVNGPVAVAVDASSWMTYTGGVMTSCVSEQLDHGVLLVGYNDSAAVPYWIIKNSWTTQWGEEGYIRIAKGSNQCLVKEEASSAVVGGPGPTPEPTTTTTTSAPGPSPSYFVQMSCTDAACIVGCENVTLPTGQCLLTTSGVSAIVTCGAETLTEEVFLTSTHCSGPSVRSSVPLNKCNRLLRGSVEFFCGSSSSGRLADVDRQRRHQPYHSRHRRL
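Purified cruzain at 1.5 nM, pre-incubated 15 min with compound at room temperature in 100 mM sodium acetate pH 5.5, 5 mM DTT, 0.00005% Triton X-100. Reaction started with 2 uM Z-FR-AMC; AMC fluorescence increase over 60 s gives rate.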
Cruzain inh Det = qHTS Assay for Promiscuous and Specific Inhibitors of Cruzain (with detergent); Cruzipain (Trypanosoma cruzi), P25779; purified cruzain, Z-FR-AMC fluorescence, 0.01% Triton; Potency, µM, without a hit: max response, negative = inhibition, hits mostly inhibitors; hit rate 0.43% among 200,000; AID 1478, 2009;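 note: plate controls were neutral wells for no effect and buffer without enzyme for full effect; nearly all actives have a fitted effect of over 40% in size; top concentration of the series not given in the record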
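15 min RT preincubation of 1.5 nM cruzain with compound, then 2 uM Z-FR-AMC added; kinetic AMC fluorescence, 60 s delta. Triton X-100 0.01%, pH 5.5.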
NS1 function inh = qHTS Assay for Inhibitors of Influenza NS1 Protein Function; S. cerevisiae slowed by influenza A NS1, growth recovery by OD600; Potency, µM (titrated, usually from 46.1 µM), inactives show top-dose activity, positive = more growth; hit rate 0.4% among 270,000; AID 2326, 2010; active means well fitted rising curve with a large enough effect; inconclusive means small, poorly fitted or top-dose-only effect; inactive means no such curve, though single readings can be large or run the other way; note: nearly all actives have a fitted effect of over 50% in size
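Recovery from NS1-induced slow growth read by OD600 in budding yeast switched to galactose assay medium (pH 6.0, -URA) at 1:100 dilution. Compound 23 nl per well; the matching strain lacking NS1 serves as control.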
* = called active by the depositor; ? = inconclusive; . = no result given; & = joins results of further samples; [ ] = another dose, or the depositor's remark. Unless noted, calls come from the whole dose curve; as a rule, active = well fitted curve in the direction sought with a large enough effect; inconclusive = small, poorly fitted or top-dose-only effect, or another doubt; inactive = no such curve, though single readings can be large; an effect the other way counts as inactive or inconclusive. Potency is the fitted concentration of half-maximal effect.

SMILES	StopGo reporter	SARS PLP yeast	MARV entry inh	LASV entry inh	RE007 growth inh	Cruzain inh noDet	Cruzain inh Det	NS1 function inh
Cc1cccc(-n2ccnc2SCC(=O)Nc2cc(C(F)(F)F)ccc2Cl)c1	-17.0%	.	.	-1.3%[46.1 µM]	.	-5.0%	-10.9%	.
O=C(c1ccccc1Cl)N1CCSCC1	-7.3%	1.1%	12.3%[46.1 µM]	18.4%	17.5%	.	.	-2.0%
CCOC(=O)CC(NC(=O)Cn1nnc(-c2ccccc2)n1)c1ccc(OC)cc1 (stereo not drawn)	28.2%	-0.5%	-15.7%[46.1 µM]	-27.2%[46.1 µM]	1.7%	.	.	.
COc1cccc(/C=N/NC(=O)c2[nH]nc3c2CCc2ccccc2-3)c1O	-23.0%	6.31µM*	?	12.6µM*	-5.3%	?	-3.4%	9.3%
CCOC(=O)CN1C(=O)C(CC)Oc2ccc(Cl)cc21 (stereo not drawn)	-13.3%	2.9%	17.0%	11.4%	-2.5%	2.1%	3.4%	-15.9%
O=[N+]([O-])c1ccc(COc2ccc(-c3[nH]ncc3-c3ccc(Cl)cc3)c(O)c2)cc1	31.6µM*	-102.3%	?	?	-18.4%	?	5.2%	19.7%
COC(=O)CN1C(=O)[C@H]2[C@@H](c3ccc(C)o3)N3C(=O)CN(CC4CC4)C(=O)[C@@]3(Cc3ccccc3)[C@H]2C1=O	-6.3%	-0.6%	.	.	8.6%	.	.	-9.6%
O=C(c1ccc(N2C(=O)c3ccccc3C2=O)cc1)N1CCCCC1	15.3%	1.6%	.	.	21.6%	.	.	-4.0%
O=C(NCc1cccnc1)c1ccccc1-c1nc(-c2ccccc2)no1	-8.7%	-2.4%	-2.0%[46.1 µM]	-9.1%	-15.7%	.	.	1.4%
COc1cccc(N(CC(=O)NCCSCc2ccco2)S(=O)(=O)c2ccccc2)c1	-15.6%	1.1%	?	?	11.0%	.	.	-1.5%
Cc1ccc(N2C(=O)CSC23C(=O)N(CC(=O)NCc2ccccc2)c2ccccc23)cc1 (stereo not drawn)	7.9%	.	.	-11.9%[46.1 µM]	.	7.4%	3.6%	.
COc1ccc(NC(=O)c2cc3c(Cl)nc4ccccc4c3s2)c(OC)c1	-13.7%	-1.5%	3.7%	16.6%	16.3%	-27.3%	0.1%	10.2%
CCOc1ccccc1NC(=O)N1C2CCCC1CC(NC(=O)C1CC1)C2 (stereo not drawn)	4.1%	-7.9%	4.0%&4.0%	-1.4%	-8.6%	-13.2%	-2.7%	-4.1%
COC(=O)CSc1nc2c(c(-c3ccc(O)cc3)c1C#N)CCCC2	-6.2%	-1.9%	?	?	44.5%	.	.	1.0%
O=C(CCNS(=O)(=O)c1ccc2[nH]c(=O)oc2c1)NCc1ccccc1	1.7%	2.9%	.	.	3.4%	.	.	-2.0%
CNC(=O)C1CCC(=O)N1Cc1ccc(C)cc1 (stereo not drawn)	-10.0%	?	4.6%	-1.8%	15.7%	1.1%	-0.6%	0.6%
Cc1cc(OCC(=O)N2CCN(CCc3ccccn3)CC2)cc(C)c1Cl	-16.7%	.	-3.1%[46.1 µM]	13.7%[46.1 µM]	.	12.8%	5.5%	.
COC(C(=O)Nc1ccc(C(C)=O)cc1)c1ccccc1 (stereo not drawn)	15.1%	-0.3%	15.2%[46.1 µM]	0.4%	-6.4%	-5.6%	-0.5%	9.3%
Cc1ccc2nc(-c3ccc(N4C(=N)SC5CS(=O)(=O)CC54)cc3)sc2c1 (stereo not drawn)	32.4%[activator]	6.2%	?	15.6%	13.0%	?	-19.8%	20.8%
CSc1ccc(/C=C(\NC(=O)c2ccco2)C(=O)N2CCCCC2)cc1	17.7%	0.9%	18.1%	-7.6%	13.1%	.	.	-17.9%

Molecules from the list above that have a furan ring, fused or not, in the order listed:
SMILES	StopGo reporter	SARS PLP yeast	MARV entry inh	LASV entry inh	RE007 growth inh	Cruzain inh noDet	Cruzain inh Det	NS1 function inh
COC(=O)CN1C(=O)[C@H]2[C@@H](c3ccc(C)o3)N3C(=O)CN(CC4CC4)C(=O)[C@@]3(Cc3ccccc3)[C@H]2C1=O	-6.3%	-0.6%	.	.	8.6%	.	.	-9.6%
COc1cccc(N(CC(=O)NCCSCc2ccco2)S(=O)(=O)c2ccccc2)c1	-15.6%	1.1%	?	?	11.0%	.	.	-1.5%
CSc1ccc(/C=C(\NC(=O)c2ccco2)C(=O)N2CCCCC2)cc1	17.7%	0.9%	18.1%	-7.6%	13.1%	.	.	-17.9%

New compounds follow
SMILES	StopGo reporter	SARS PLP yeast	MARV entry inh	LASV entry inh	RE007 growth inh	Cruzain inh noDet	Cruzain inh Det	NS1 function inh
CC(C)(C)OC(=O)N1CCC(c2c(C(=O)N3CCOCC3)cnn2-c2ccccc2Cl)CC1	4.4%	.	.	?	.	8.6%	-0.2%	.
CCCOC(=O)c1ccc(N2C(=O)c3ccccc3C2=O)cc1	19.0%	14.0%	22.0%	5.7%	-11.5%	-15.5%	-3.6%	-3.6%
Cc1cccc(C)c1NC1=C(Cl)C(=O)OC1OC(=O)c1ccccc1 (stereo not drawn)	-10.7%	-12.3%	-0.2%[46.1 µM]	19.2%	20.9%	.	.	.
COc1cc(OC)c(NC(=O)c2nn(C)c3c2COc2ccccc2-3)cc1Cl	-3.1%	.	-16.7%[46.1 µM]	-28.1%[46.1 µM]	.	5.2%	0.3%	.
Cc1nnc(NC(=O)C2CC(=O)N(C(C)c3ccccc3)C2)s1 (stereo not drawn)	-25.3%	4.4%	4.7%	14.6%	1.8%	.	.	2.8%
CC1CCc2nc(NC(=O)CCSc3ccccc3)sc2C1 (stereo not drawn)	34.3%[activator]	5.3%	.	.	13.6%	0.2%	2.4%	2.8%
CC(=O)Nc1c(O)nc(SCC(=O)N2CCCCC2)[nH]c1=O	-12.2%	-10.0%	-3.3%	?	7.5%	.	.	.
COc1ccc(NS(=O)(=O)NC(=O)c2c[nH]c3ccccc23)cc1	-1.3%	1.2%	.	.	-0.3%	.	.	-4.4%
O=c1c(-c2ccccc2)coc2c(CN3CCOCC3)c(O)ccc12	-5.2%	2.3%	14.7%	-0.2%	-10.0%	-1.5%	-0.3%	8.1%
CC(=O)c1ccccc1OC(=O)COc1ccc([N+](=O)[O-])cc1	-5.2%	-2.1%	12.2%[46.1 µM]	17.5%[46.1 µM]	26.6%	.	.	8.9%
CN(C)CCCN1C(=O)C2CCc3[nH]c4ccccc4c3C2C1=O (stereo not drawn)	-11.3%	1.0%	19.8%[46.1 µM]	24.5%	11.4%	.	.	0.8%
Cc1cc(-c2nnc(SCC(=O)NC3CCCC3)o2)no1	-3.8%	0.6%	3.6%	19.0%	-11.8%	8.0%	1.8%	-6.5%
O=C1COc2ccccc2CN1	-7.4%	-3.8%	7.7%[46.1 µM]	-2.9%	1.4%	1.9%	10.3%	-16.9%
CO/N=C(/CS(=O)Cc1ccc(Cl)cc1)c1ccc(Cl)cc1 (stereo not drawn)	.	0.2%	0.7%	?	9.8%	4.1%	-6.2%	-3.3%
CC(=O)Nc1ccc(NC(=O)COc2ccc(S(=O)(=O)N3CCCC3)cc2C)cc1	9.2%	0.9%	-17.7%[46.1 µM]	-3.9%[46.1 µM]	7.7%	.	.	-4.2%
C[C@]12C=CC(=O)C=C1CCC1C2=CC[C@]2(C)[C@@H](C(=O)CN3CCN(c4cc(N5CCCC5)nc(N5CCCC5)n4)CC3)CC[C@@H]12 (stereo partly drawn)	.	.	5.62µM*	.	.	?	-4.9%	35.5µM*
COc1ccccc1CNC(=S)NCc1ccc(Cl)cc1	21.7%	25.2%	.	.	-0.1%	.	.	-36.5%
S=C(Nc1ccc(Cl)cc1)Nc1ccc2c(c1)OCCO2	31.3%[activator]	-3.5%	.	.	7.9%	.	.	-18.7%
Cc1cc2ncn(C(=O)N3CCOCC3)c2cc1C	-7.1%	2.5%	-9.5%	0.0%	-0.3%	-13.5%	6.4%	3.5%
COc1ccc(NC(=O)c2cccn2-c2nnc(N3CCCCC3)s2)c(OC)c1	8.0%	.	.	11.7%[46.1 µM]	.	-9.1%	-2.0%	.
OC(c1ccc2ccccc2n1)c1c(Cl)cccc1Cl (stereo not drawn)	?	.	?	0.1%	-9.9%	.	.	.
Cc1cc(C)c(S(=O)(=O)Nc2ccc(-c3ccc(N4CCCCC4)nn3)cc2)c(C)c1	32.6%[activator]	.	.	-25.8%[46.1 µM]	.	-4.1%	-4.8%	.
C/C(=N\Nc1cc(-c2ccccc2)nc(-c2ccc(Br)cc2)n1)c1cccc(N)c1	-6.3%	.	-7.2%	36.8%[14.3 µM]	-16.7%	.	.	.
N#Cc1ccccc1NC(=O)C(=O)NCC(c1cccnc1)N1CCc2ccccc21 (stereo not drawn)	-15.3%	.	.	-7.1%[46.1 µM]	.	-0.4%	-0.8%	.
COc1cc(OC)cc(C(=O)NNC(=O)NC2CCCCC2)c1	9.3%	9.5%	6.0%	?	23.0%	23.6%	1.2%	3.9%
CN1CCN(c2ccc(S(=O)(=O)N3CCOCC3)cc2NC(=O)CCc2ccccc2)CC1	-4.1%	1.5%	.	.	11.3%	.	.	5.3%
COc1cccc(CNC(=O)C2(C)Oc3ccccc3NC2=O)c1 (stereo not drawn)	-7.7%	12.1%	16.2%[46.1 µM]	19.5%	13.0%	1.6%	2.2%	-1.9%
Cc1ccc2nc(C)cc(C(=O)N3CCCC(N4CCN(c5ccccc5C)CC4)C3)c2c1 (stereo not drawn)	?	-1.5%	-11.4%	-21.8%	-0.8%	.	.	-41.8%
CC(=O)Nc1ccc(OCc2nnc(-c3ccc(Cl)cc3)o2)cc1	1.9%	3.1%	2.1%[46.1 µM]	-5.9%[46.1 µM]	1.3%	.	.	-6.8%

Rows are unselected. Share with any hit: about 4.7%.
